HCMV NEC inh – cytomegalovirus nuclear egress complex inhibition. HTRF UL50-UL53 interaction, normalized percent inhibition. inhibition, % (concentration not given with the values). hit rate 0.15% among 190,000. AID 1918969;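 active = both replicates at 50% or more, plus weaker picks with an unusually low signal ratio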;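 also: stock transfer was 100 nL into about 20 µL; 0% = negative control wells and 100% = wells with untagged competitor protein; inactives centre near -12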
GIV-Gai inh – GIV-Galpha-i interaction inhibition | Galpha-i3/FITC-GIV peptide fluorescence polarization, 90 min; hits give low values; scaled: aluminum fluoride 0%, vehicle 100% | percent of control (FP), % (no concentration beside the values) | hit rate 0.42% among 210,000;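 active = replicate mean at 85% of control or lower, very high polarization wells dropped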;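 also: wells of about 15 µL received 100 nL stock; the first replicate is given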
Target sequence (P08753 whole entry, looked up): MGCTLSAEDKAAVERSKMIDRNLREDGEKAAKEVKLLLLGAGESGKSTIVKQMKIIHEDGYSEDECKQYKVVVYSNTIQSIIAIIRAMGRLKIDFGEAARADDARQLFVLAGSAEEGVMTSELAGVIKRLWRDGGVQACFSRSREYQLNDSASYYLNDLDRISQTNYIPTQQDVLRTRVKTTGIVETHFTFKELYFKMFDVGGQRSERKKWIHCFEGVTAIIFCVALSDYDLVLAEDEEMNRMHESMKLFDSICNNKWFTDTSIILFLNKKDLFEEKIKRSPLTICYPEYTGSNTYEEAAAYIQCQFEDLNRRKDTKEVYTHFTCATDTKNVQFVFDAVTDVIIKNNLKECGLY
Sa growth 42C – blocks Staphylococcus aureus growth | S. aureus RN4220 growth, OD600, 20 h, 42 °C; hits give low values | relative growth, % (concentration not given with the values) | hit rate 0.53% among 170,000 | AID 720641;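 active = growth at 42 °C up to 50% and 20 or more points under that at 30 °C, or under 10% at both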;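 also: 300 nL library stock went into each well; scaled to the means of positive and negative controls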
Sa growth 42C second temp – second read-out of Sa growth 42C, no call of its own (marks repeat the call); relative growth, %; measured here: growth at 30 °C;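 optical density after 20 h as mean of two plates; 100% = untreated growth and lower means inhibition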
* hit, by the source's call; nt = not tested or not shown; & = joins results of further samples.

nr | Compound | HCMV NEC inh | GIV-Gai inh | Sa growth 42C | Sa growth 42C second temp
1 | CN1/C(=C/C(=O)C(C#N)C2=NCCC2)C(C)(C)c2ccccc21 (stereo not drawn) | -19 | nt | 92 | 84
2 | CN1CCN(S(=O)(=O)c2ccc3c(c2)CCN3C(=O)CCC(=O)N2CCCC2)CC1 | -31 | 102 | nt | nt
3 | O=C(O)CCCNC(=O)c1ccc2c(c1)OCCO2 | -14 | 100 | nt | nt
4 | CC(C)(C)C(=O)ON=C(c1cccs1)c1cccs1 | -40 | 106 | 93 | 79
5 | S=c1[nH]nc(N2CCCCC2)c2ccccc12 | -9 | 108 | nt | nt
6 | Cc1ccc(N2CNC(=O)c3c(C)cc(C)nc32)cc1 | -5 | 107 | 117 | 79
7 | N#CCN1CCN(c2nc3ccc(Cl)cc3s2)CC1 | -2 | 99 | 110 | 73
8 | CSc1c(-c2ccccn2)c(N)nn1C(=O)c1cccs1 | 1 | 104 | 104 | 109
9 | CCc1ccc(Oc2c(C(F)(F)F)oc3c(CN4CCCCC4)c(O)ccc3c2=O)cc1 | nt | 98 | 110 | 84
10 | COc1ccc(C(=O)Oc2c(C)cc(C(O)(C(F)(F)F)C(F)(F)F)cc2C)cc1 | -1 | nt | 99 | 80
11 | COCCNC(=O)Cn1cc(/C=C2\C(=O)NC(=O)N(C3CCCCC3)C2=O)c2ccccc21 | -30 | -38* | 137 | 96
12 | CC(C)c1ccc(C(=O)CC#N)cc1 | -6 | nt | 66 | 52
13 | CCCN1C(=O)c2cc(C(=O)NCCC3=CCCCC3)nn2CC1(C)C(=O)NC1CCCC1 (stereo not drawn) | -6 | 103 | nt | nt
14 | Cc1ccc(S(=O)(=O)NC(=O)NCc2ccccc2)cc1 | -28 | nt | 105 | 91
15 | CC1SC2(CCCCC2)N(c2ccc(Cl)cc2)C1=O (stereo not drawn) | nt | 107 | 94 | 80
16 | CN1/C(=N\N)c2cccc3cccc1c23 | -29 | 186 | 95 | 75
17 | CN(C)C(=O)COc1ncnc2scc(-c3ccccc3)c12 | -24 | nt | 82 | 89
18 | Cc1ccc(NC(=O)Cn2ncc(-c3ccc(Cl)cc3)nc2=O)c(C)c1 | -36 | 106 | nt | nt
19 | COc1ccc(OC)c(CCNC(=O)c2nc(-c3ccc(Cl)cc3)n3c2CCCCC3)c1 | nt | 106 | 123 | 92
20 | CCOc1ccccc1NC(=S)N1CCC(NC(=O)c2ccco2)CC1 | 16 | 104 | 93 | 77
21 | CC(C)Cn1cnc2oc(-c3ccccc3)c(-c3ccccc3)c2c1=N | -25 | 101 | 95 | 76
22 | COc1cccc(NC(=O)C2CCCN2S(=O)(=O)c2cccc3nsnc23)c1 (stereo not drawn) | -134 | 100 | nt | nt
23 | O=C(CCCn1nnc2cc(S(=O)(=O)N3CCCC3)ccc21)NCc1cccnc1 | 1 | 107 | nt | nt
24 | COC(CNC(=O)c1c[nH]c2ccc(S(=O)(=O)N(C)c3ccccc3C)cc2c1=O)OC | -5 | 103 | 106 | 90
25 | CNC(=O)CN(c1ccc2c(c1)OCO2)S(C)(=O)=O | 4 | 106 | 99 | 97

One compound at a time (already shown):
Record of `O=C(O)CCCNC(=O)c1ccc2c(c1)OCCO2` = HCMV NEC inh: -14; GIV-Gai inh: 100; Sa growth 42C: nt; Sa growth 42C second temp: nt
Record of `CN(C)C(=O)COc1ncnc2scc(-c3ccccc3)c12` = HCMV NEC inh: -24; GIV-Gai inh: nt; Sa growth 42C: 82; Sa growth 42C second temp: 89

Screen by screen, as entered above:
Sa growth 42C second temp, compounds 4–11 → 79, nt, 79, 73, 109, 84, 80, 96

(listing goes on)
nr | Compound | HCMV NEC inh | GIV-Gai inh | Sa growth 42C | Sa growth 42C second temp
26 | N#CC(C(=O)Cc1cccc2ccccc12)c1nc2ccccc2[nH]1 (stereo not drawn) | -26 | nt | 130 | 86
27 | Cn1cnnc1SCc1cc(=O)c(OCC(=O)N2CCCCC2)co1 | -30 | 104 | 90 | 85
28 | Cc1cc(C)cc(NC(=O)Nc2nnc(N3CC(C)CC(C)C3)s2)c1 (stereo not drawn) | nt | 103 | 93 | 94
29 | N#CCc1ccno1 | -10 | nt | 107 | 90
30 | Cc1ccc(NC(=O)c2c(C)oc3nc(C)nc(N4CCCC4)c23)c(C)c1 | nt | 99 | 92 | 91
31 | C=CCNC(=O)C1CC(c2ccc(F)cc2)=NO1 (stereo not drawn) | -16 | 96 | 94 | 85
32 | CCOC(=O)C1=C(C)N=c2s/c(=C\c3ccc(-c4cccc(C(=O)O)c4)o3)c(=O)n2C1c1ccc2c(c1)OCO2 (stereo not drawn) | -18 | 137 | nt | nt
33 | Cc1ccc(CNC(=O)c2ccc(S(=O)(=O)N3CCCC3)cc2)cc1 | -29 | nt | 83 | 91
34 | O=C(COc1ccccc1Br)NC1CCCC1 | -18 | nt | 95 | 89
35 | CSc1ccc(-c2ncnn2-c2ccc(Cl)cc2)cc1 | -5 | 108 | 74 | 90
36 | N#CC1=C2C=CC=CN2CC1=O | -59 | nt | 76 | 83
37 | CCC12CN3CC(C)(CN(C1)C3c1cc(Br)ccc1O)C2=O (stereo not drawn) | -4 | 103 | nt | nt
38 | COCCn1c(SCc2ccc(C(=O)OC)o2)nc2ccccc2c1=O | -17 | nt | 99 | 97
39 | N#Cc1ccc(-c2cccs2)nc1SCC(=O)Nc1cccc(C(F)(F)F)c1 | -12 | 113 | 98 | 82
40 | Cc1nc2nc(-c3ccc(Cl)cc3Cl)nn2c(C)c1CCC(=O)Nc1ccc(F)cc1 | -7 | 101 | 100 | 89
41 | Cc1ccc(NC(=O)CN2CCN(C3CCCCC3)C(=O)C2=O)cc1 | nt | 101 | 77 | 89
42 | CC1(C)CC2(CC(C)(C(=O)CSc3nc4ccccc4s3)OC2=O)C(=O)O1 (stereo not drawn) | nt | 104 | 96 | 74
43 | COc1ccc(CNC(=O)COCc2cc(-c3ccc4c(c3)OCO4)on2)cc1 | nt | 108 | 124 | 93
44 | Cc1ccc2nc(CN3CCN(S(=O)(=O)c4ccc(F)cc4)CC3)oc2c1 | nt | 102 | 101 | 89
45 | CCOC(=O)c1cc2occc2n1Cc1c(F)cccc1Cl | 5 | 113 | 106 | 93
46 | O=C(Nc1nc2ccccc2n1CCOc1ccccc1Cl)c1ccccc1 | 6 | 109 | 97 | 84
47 | CCOC(=O)/C=C1\SCC(=O)N1CCOC(=O)c1cc2c(C)nn(-c3ccccc3)c2s1 | -32 | nt | 80 | 97
48 | CSc1sc(C#N)c2c1/C(=N/OC(C)=O)CCC2 | -42 | 108 | 106 | 94
49 | Cc1ccc(S(=O)(=O)N2CC=C(c3ccc(F)cc3)CC2)cc1 | -26 | 104 | 121 | 102
50 | CC1(C)Cc2c(C#N)c(NCC3CCCO3)nc(-c3ccccc3)c2CO1 (stereo not drawn) | nt | 102 | 107 | 85

The closing 7 compounds of the part before are carried over, then new ones follow.
nr | Compound | HCMV NEC inh | GIV-Gai inh | Sa growth 42C | Sa growth 42C second temp
44 | Cc1ccc2nc(CN3CCN(S(=O)(=O)c4ccc(F)cc4)CC3)oc2c1 | nt | 102 | 101 | 89
45 | CCOC(=O)c1cc2occc2n1Cc1c(F)cccc1Cl | 5 | 113 | 106 | 93
46 | O=C(Nc1nc2ccccc2n1CCOc1ccccc1Cl)c1ccccc1 | 6 | 109 | 97 | 84
47 | CCOC(=O)/C=C1\SCC(=O)N1CCOC(=O)c1cc2c(C)nn(-c3ccccc3)c2s1 | -32 | nt | 80 | 97
48 | CSc1sc(C#N)c2c1/C(=N/OC(C)=O)CCC2 | -42 | 108 | 106 | 94
49 | Cc1ccc(S(=O)(=O)N2CC=C(c3ccc(F)cc3)CC2)cc1 | -26 | 104 | 121 | 102
50 | CC1(C)Cc2c(C#N)c(NCC3CCCO3)nc(-c3ccccc3)c2CO1 (stereo not drawn) | nt | 102 | 107 | 85
51 | COc1ccc(C2C(C(=O)Nc3ccccc3)=C(C)Nc3nnnn32)cc1OC (stereo not drawn) | -7 | 103 | nt | nt
52 | COc1ccc(C2=NN(C(=O)CCC(=O)O)C(c3cn(-c4ccccc4)nc3-c3ccc(C)cc3)C2)cc1 (stereo not drawn) | -33&-25 | 106&105 | nt | nt
53 | COc1ccc(OCc2nc3ccccc3n2CC(C)C)cc1 | -10 | nt | 91 | 77
54 | Cc1cc(S(=O)(=O)Nc2nc(CN3CCOCC3)nc3sc4c(c23)CCC4)ccc1F | -5 | nt | 126 | 72
55 | C=CCNC(=O)c1ccc2c(c1)N(Cc1ccccc1)C(=O)CS2 | nt | 97 | 91 | 82
56 | COc1ccc(CCNC(=O)CCc2c(C)nc3c4c(C)cc(C)nc4nn3c2C)cc1OC | -4 | 97 | 103 | 88
57 | COc1ccc(OC)c(CC2C(=O)N(C)c3ccc(Br)cc32)c1 (stereo not drawn) | -10 | 105 | nt | nt
58 | COc1ccc(/C=C2/Oc3ccccc3N(CC(=O)O)C2=O)cc1 | nt | 99 | 109 | 86
59 | Cc1nc2nc(NCc3cccc(Cl)c3)[nH]n2c(=O)c1Cc1ccccc1 | -11 | 104 | 97 | 85
60 | Cc1ccc2nc(SCC(=O)c3cc4c5c(c3)CC(=O)N5CCC4)[nH]c2c1 | -27 | nt | 77 | 86
61 | C=CCN1C(=O)CC(c2ccc(C)cc2)c2c(C)nn(-c3nc4ccccc4s3)c21 (stereo not drawn) | -6 | 109 | nt | nt
62 | Cn1c(CN2CCOCC2)c(C#N)c2ccccc21 | -4 | nt | 88 | 90
63 | CC(=O)Nc1cc(C(=O)N2CCc3ccccc3C2)ccc1Sc1ccc(Cl)cc1 | nt | 107 | 98 | 92
64 | Cc1cc2oc3c(c(=O)c2cc1C)C1(C(=O)N(C)c2ccccc21)N(CCO)C3=O (stereo not drawn) | -42 | 104 | 98 | 85
65 | Cc1ccccc1C(=O)N1C(=O)c2ccccc2S1(=O)=O | -2 | nt | 109 | 93
66 | Cc1ccc(C)c(NC(=O)CCCN2C(=O)COc3ccc(C)cc32)c1 | 4 | 108 | 113 | 85
67 | COC(=O)c1c(C)nn(-c2ccccc2)c1-c1cc(C)on1 | 0 | 102 | 96 | 68
68 | CCC1C(=O)NCCN1C(=O)/C=C/c1ccccc1 (stereo not drawn) | -14 | 105 | 99 | 99
69 | CC(=O)c1cccc(NC(=O)c2cc3nc(-c4ccc(Br)cc4)cc(C(F)(F)F)n3n2)c1 | nt | 107 | 103 | 93
70 | CCc1ccc(C(C)NC(=O)c2cccc(C3CCCN(C(=O)NC)C3)c2)cc1 (stereo not drawn) | -1 | 105 | nt | nt
71 | COc1ccc(-n2nc(N3CCC(C(=O)NCc4cccc(Cl)c4)CC3)ccc2=O)cc1 | -28 | 105 | nt | nt
72 | COC(=O)c1cc(CSc2nnc(-c3cccs3)n2N)oc1C | -11 | nt | 87 | 93
73 | COc1ccc(CC(CC(=O)O)C(=O)Nc2ccccc2)cc1 (stereo not drawn) | nt | 102 | 100 | 81
74 | O=C(Nc1ccc2n[nH]nc2c1)c1cccc(Cl)c1 | nt | 105 | 105 | 73
75 | S=C1NCN(C(Cc2ccccc2)c2ccccc2)CN1 (stereo not drawn) | -16 | 99 | 93 | 86

Additional structures.
nr | Compound | HCMV NEC inh | GIV-Gai inh | Sa growth 42C | Sa growth 42C second temp
76 | Cc1nc(C)c(-c2ccnc(N)n2)s1 | -35&-13 | 104 | 88 | 93
77 | CC1(C)Cc2cccc(Oc3ccc(S(=O)(=O)N4CCCC4)cn3)c2O1 | -26 | nt | 77 | 86
78 | O=C1C(=Cc2cn[nH]c2-c2ccc(F)cc2)C(=O)c2ccccc21 | -7 | nt | 92 | 87
79 | CC1(C)Cc2cccc(OCC(=O)OCC(=O)N3CCN(c4ccccc4)CC3)c2O1 | -15 | nt | 93 | 89
80 | Cc1sc(-c2ccno2)cc1S(=O)(=O)NC(C)(C)C | -37 | 109 | nt | nt
81 | Cn1c(=O)oc2cc(S(=O)(=O)CCC(=O)NCc3ccccc3)ccc21 | nt | 105 | 90 | 92
82 | COc1ccc(-c2cccc(NS(=O)(=O)c3cc(C)c(OC)c(C)c3C)c2)nn1 | nt | 102 | 92 | 65
83 | O=C(O)CN1C(=O)/C(=C2\SC(=S)N(C(Cc3ccccc3)C(=O)O)C2=O)c2ccccc21 (stereo not drawn) | 6 | 109 | nt | nt
84 | COC(=O)Cn1c(Cl)nc2c1c(=O)n(C)c(=O)n2C | nt | 103 | 86 | 91
85 | Fc1ccc(Cc2nc3ccccc3[nH]2)cc1 | nt | 101 | 90 | 85
86 | COc1ccc(NC(=O)Nc2nnc(N(C)C3CCCCC3)s2)c(OC)c1 | -24 | 100 | 122 | 72
87 | FC(F)(F)c1cccc(NC(=S)N2CCCC2)c1 | -46 | 103 | 107 | 91

Laid out differently: 5 of the compounds above.
#84 COC(=O)Cn1c(Cl)nc2c1c(=O)n(C)c(=O)n2C
#76 Cc1nc(C)c(-c2ccnc(N)n2)s1
#77 CC1(C)Cc2cccc(Oc3ccc(S(=O)(=O)N4CCCC4)cn3)c2O1
#87 FC(F)(F)c1cccc(NC(=S)N2CCCC2)c1
#86 COc1ccc(NC(=O)Nc2nnc(N(C)C3CCCCC3)s2)c(OC)c1
Assay by compound	84	76	77	87	86
HCMV NEC inh	nt	-35&-13	-26	-46	-24
GIV-Gai inh	103	104	nt	103	100
Sa growth 42C	86	88	77	107	122
Sa growth 42C second temp	91	93	86	91	72

Assay outcomes as filed in PubChem BioAssay.
